From PubChem
gsp agonist: qHTS for Agonist of gsp, the Etiologic Mutation Responsible for Fibrous Dysplasia/McCune-Albright Syndrome: qHTS | gsp mutant cells, cAMP HTRF, 30 min; control for the full effect not named in the record | 0.13% of 340,000 active | Potency, µM (series often up to 76.9 µM), for inactives: at the top dose activation (cAMP increase), usual class: activators | AID 624287, 2012; active = well fitted activation curve with a large enough effect; inconclusive = small, poorly fitted or top-dose-only effect, or another doubt; inactive = no such curve, though single readings can be large or run the other way; cell line not stated here;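 further: phosphodiesterase inhibitor Ro 20-1724 added with compounds to block cAMP breakdown; potency means the concentration at half of the fitted maximal effect; nearly all actives have a fitted effect of over 60% in size; about a fifth of the inactives were tested at one dose only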
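Cells in DMEM/10% FBS with G418 were pretreated with compounds in DMSO plus […] (300 uM stock) for 30 min at 37C. cAMP was measured by HTRF (cAMP-d2 plus anti-cAMP antibody-K) after 30 min at room temperature.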
TRPML1 blocker: qHTS for Inhibitors of the Human Mucolipin Transient Receptor Potential 1 (TRPML1); 0.02% of 390,000 active; activity change, negative = inhibition, % (test concentration not listed); TRPML1-inducible cells, Ca2+ dye fluorescence, FDSS; stronger effect = lower value; inhibition of EC80 agonist-evoked calcium signal; in the data active means activity change below about -50%; inconclusive means about -30% to -50%; inactive means above about -30%;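 further: stimulus is agonist 54-4 at its EC80 concentration; on the % scale 0 is the no-effect control and ±100 the full control effect; compound concentration not given in the record; the text of the record puts the active cut at -80%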
Target sequence (Q9GZU1 whole entry, looked up): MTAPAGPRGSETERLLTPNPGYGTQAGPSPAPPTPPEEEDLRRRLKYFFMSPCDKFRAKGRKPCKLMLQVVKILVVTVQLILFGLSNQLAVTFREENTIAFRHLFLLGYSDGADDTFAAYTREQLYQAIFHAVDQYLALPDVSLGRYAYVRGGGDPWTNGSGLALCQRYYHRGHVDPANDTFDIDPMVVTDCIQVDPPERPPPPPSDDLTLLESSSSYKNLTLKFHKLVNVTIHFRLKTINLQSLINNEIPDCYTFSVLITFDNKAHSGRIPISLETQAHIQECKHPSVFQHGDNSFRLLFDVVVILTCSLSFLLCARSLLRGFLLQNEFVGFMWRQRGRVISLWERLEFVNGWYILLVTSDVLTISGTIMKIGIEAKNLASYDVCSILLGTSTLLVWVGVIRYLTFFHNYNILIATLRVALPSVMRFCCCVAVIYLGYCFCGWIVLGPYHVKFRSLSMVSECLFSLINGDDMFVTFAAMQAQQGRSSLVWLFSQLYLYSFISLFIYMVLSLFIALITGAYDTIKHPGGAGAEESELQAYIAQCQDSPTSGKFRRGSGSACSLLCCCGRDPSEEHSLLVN
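TRPML1-DL cells, Tet-induced overnight (~16 h, 37 °C) at 1,500 cells/well, were loaded with Ca8 no-wash dye plus quencher for 45-90 min at room temperature. Compounds were pinned during FDSS kinetic reading; agonist 54-4 at EC80 (4 uM final) then added.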
TRPML1 agonist: qHTS for Agonists of the Human Mucolipin Transient Receptor Potential 1 (TRPML1) | TRPML1-expressing cells, Ca2+ dye fluorescence, FDSS; host cell line not named in the record; reference of the full effect not given here | Mucolipin-1 (Homo sapiens), Q9GZU1 | activation, % (concentration not given with the values) | 0.12% of 410,000 active; in the data active = activation above about 50%; inconclusive = about 30% to 50%; inactive = below about 30%; further: 0% is about no effect; the text of the record puts the active cut at 80%
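Cells: TRPML1-DL, 1X Tet inducer, ~16 h at 37 degrees C/5% CO2. Dye: ABD Ca8 no-wash + quencher, 45-90 min RT. Read: 10 s baseline, compound add, 110 s agonist phase; 54-4 EC80 (4uM final), 110 s antagonist phase.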
Menin-MLL FL inh: qHTS Assay for Inhibitors Targeting the Menin-MLL Interaction in MLL Related Leukemias: Competition With Fluorescein Labeled MLL-derived Peptide. Fluorescence polarization, fluorescein-MLL peptide displacement from menin. FP activity change, % at 61.4 µM. 290,000 tested, under 10 active. AID 1766, 2009; inconclusive = falling polarisation curve, or a change in total fluorescence; inactive = total fluorescence flat and polarisation flat or rising; no compound was filed as active; the % refers to the polarisation; negative = inhibition;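 further: % of control where 0% means no effect; inhibitors lower the polarisation; unlabelled MLL peptide was the positive control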
gsp antag: qHTS for Antagonists of gsp, the Etiologic Mutation Responsible for Fibrous Dysplasia/McCune-Albright Syndrome: qHTS; gsp-mutant cells, cAMP HTRF, 30 min; control for the full effect not named in the record; 0.4% of 340,000 active; Potency, µM (series often up to 76.9 µM), inactives show top-dose activity change, negative = inhibition, most hits filed as inhibitors; AID 624288, 2012; active = falling curve of any shape with a large fitted effect; inconclusive = falling curve, mostly with a smaller effect; inactive = flat or rising curve; cell line not stated here;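 further: intracellular cAMP measured with PDE inhibitor Ro 20-1724 present during compound exposure; potency means the concentration at half of the fitted maximal effect; on the % scale 0 is the no-effect control and ±100 the full control effect; nearly all actives have a fitted effect of over 65% in size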
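Measurement of cellular cAMP by homogeneous time-resolved fluorescence following a 30 min compound exposure at 37C. The PDE inhibitor […] was present throughout; the assay buffer was DPBS with 0.05% BSA and 0.005% Tween 20.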
ClpP mod: qHTS Assay for Activators of ClpP; 1.9% of 340,000 active; Potency, µM (doses to about 57.5 µM), for inactives: at the top dose activity change, negative = active; AID 651965, 2013; purified B. subtilis ClpP, FRET peptide cleavage, 20 min; ATP-dependent Clp protease proteolytic subunit (Bacillus subtilis (strain 168)), P80244; active = well fitted falling curve with a large enough effect; inconclusive = small, poorly fitted or top-dose-only effect; inactive = no such curve, though single readings can be large or run the other way; further: potency means the concentration at half of the fitted maximal effect; the source files actives as falling curves though it sought activators and does not explain the sign; nearly all actives have a fitted effect of over 65% in size; many hits overshoot -100%
Target sequence (P80244 whole entry, looked up): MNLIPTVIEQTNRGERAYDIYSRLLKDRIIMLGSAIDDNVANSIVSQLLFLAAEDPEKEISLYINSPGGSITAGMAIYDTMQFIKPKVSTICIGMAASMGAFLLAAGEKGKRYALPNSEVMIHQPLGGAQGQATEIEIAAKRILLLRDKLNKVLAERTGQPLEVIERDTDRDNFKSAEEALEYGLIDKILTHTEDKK
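ClpP 10 microg/mL final, pH 8 Tris/KCl buffer with BSA, glycerol, Tween-20; compound pinned in; FRET-FV substrate; RT 20 min; Ex320/Em430; ΔFRET vs ADEP 5.8 microM, DMSO, no enzyme.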
The depositor's hits bear a star; u = inconclusive; x = not tested or not shown; [ ] = another dose, or the depositor's remark.

SMILES	gsp agonist	TRPML1 blocker	TRPML1 agonist	Menin-MLL FL inh	gsp antag	ClpP mod
Fc1ccc(C2CCCN2Cc2nc(-c3cnccn3)no2)cc1 (stereo unspecified)	-17.0%	-1.6	0.5	-0.8	3.3%	-0.2%
O=C(COC(=O)CCc1nc2ccccc2s1)Nc1ccc(Cl)cn1	-2.3%[15.4 µM]	0.3	-0.2	1.0	-3.4%	-3.1%
CN(CC(=O)Nn1cnnc1)S(=O)(=O)c1ccc(Br)cc1	15.2%	5.3	0.5	2.8	9.5%	0.6%
O=C(O)Cc1ccc(NC(=O)CCN2C(=O)c3ccc([N+](=O)[O-])cc3C2=O)cc1	-0.7%[15.4 µM]	4.2	-0.4	-2.2	-4.4%	x
Cc1ccc2c(c1)S(=O)(=O)c1ccc3ccccc3c1N2	-16.4%	16.0	0.1	x	-13.3%	u
Cc1ccc(C(=O)N2CCN(c3ncc(C(F)(F)F)cc3Cl)CC2)s1	23.9%	4.5	-0.2	x	-4.3%	-2.3%
CCCc1c(C)[nH]c2ccc(C(=O)O)cc2c1=S	u	x	x	-2.2	18.7%	-29.1%
COc1ccccc1N(Cc1ccccc1)S(=O)(=O)c1cc(C(=O)O)ccc1Cl	5.7%[15.4 µM]	10.2	-0.6	-0.1	-14.9%	x
O=C(CN(C(=O)CNS(=O)(=O)c1ccccc1)c1ccc(Cl)cc1)NCC1CCCO1 (stereo unspecified)	-4.1%[15.4 µM]	-0.5	-0.3	x	1.8%	x
Cc1nnc2sc(COc3ccccc3)nn2c1=O	u	x	x	11.7	-4.5%	0.0%
CCOC(=O)c1c(NC(=O)CSc2nc3ccccc3c(=O)n2-c2ccc(F)cc2)sc(C(C)=O)c1C	9.8%	-11.4	-0.6	4.6	-16.8%	-3.5%
Cc1ccc(O)c(C(=O)c2cnc3c(c2)COc2ccccc2-3)c1	-28.0%	2.6	14.5	8.3	-2.1%	10.6%
Cn1c(NC(=O)Cc2ccc(F)cc2)cc(=O)n(C)c1=O	u	2.9	-1.0	-1.2	2.9%	0.8%
O=C(CN1CCCCC1)Nc1ccccc1NC(=O)CN1CCCCC1	-17.5%	0.8	0.5	-2.4	4.6%	u
COc1ccc2c(CC(=O)OCC(=O)Nc3sc4c(c3C#N)CCC(C)C4)coc2c1 (stereo unspecified)	0.8%	-11.5	0.0	5.7	1.0%	-8.1%
Cc1nn(-c2ccccc2)c(C)c1C(=O)NCc1cccs1	u	26.5	-0.3	2.0	1.6%	-1.1%
CCC1CCc2sc(C(=O)NCC(c3ccc(OC)cc3)N3CCOCC3)cc2C1 (stereo unspecified)	4.5%	32.3	-1.4	x	-9.7%	-0.9%
Cc1ccccc1NC(=O)C(C)c1cccc(C(=O)c2ccccc2)c1 (stereo unspecified)	2.4%	1.7	1.1	-0.2	-8.0%	0.8%
CC1CN(c2snnc2C=C2C(=O)OC(C)(C)OC2=O)CC(C)O1 (stereo unspecified)	-39.6%[inhibitor]	1.3	0.0	2.2	5.6%	-2.0%
Cc1ccc(NC(=O)c2cc(F)c(F)cc2Cl)nc1	-29.8%	-5.4	-0.6	2.2	-2.7%	-1.8%
CCOc1ccc(C(=O)c2cn(Cc3ccc(Cl)cc3)c3cc(OC)c(OC)cc3c2=O)cc1	x	47.5	0.8	x	x	-2.0%
O=S(=O)(CCSc1nc2ccccc2o1)Cc1ccccc1	-16.4%	14.0	2.6	-1.4	-10.9%	0.0%
CCOc1ccc(NC(=O)C2CC(=O)N(CCc3ccc(OC)c(OC)c3)C2)cc1OCC (stereo unspecified)	2.9%	-14.5	-1.5	x	4.4%	1.1%
Cc1ccc(C(=O)c2cn(-c3ccc(F)c(Cl)c3)nn2)cc1	1.1%	-7.7	-0.3	1.2	39.0%[activator]	1.4%
Cn1c(COc2ccc(Cl)cc2)nnc1SCC(=O)NC1CCCC1	-22.1%	-16.3	-0.3	x	-13.8%	x
C[C@H](CO)N1C[C@H](C)[C@@H](CN(C)Cc2ccc(C(=O)O)cc2)Oc2c(NS(=O)(=O)c3cn(C)cn3)cccc2C1=O	-2.2%	12.2	-0.4	x	8.2%	-16.9%
CCCNC(=O)CCCN1C(=O)c2ccccc2Sc2ncccc21	u	-6.8	1.4	-0.1	7.2%	0.7%
Cc1cc(S(=O)(=O)N2CCN(Cc3noc(CCC(=O)N4CCCCC4)n3)CC2)ccc1F	x	-23.9	2.0	x	x	0.4%
CC[n+]1c(/C=C/c2ccc(N(C)C)cc2)ccc2ccccc21	20.0%	8.1	-0.3	25.1	u	-0.3%
Cc1cc(=O)[nH]c(N/N=C/c2ccc3c(c2)OCCO3)n1	20.2%	3.0	2.3	3.2	15.2%	-2.6%
CCOC(=O)Cc1c(Cl)c2ccccc2[nH]c1=O	-3.3%	-1.7	-0.5	-6.3	2.4%	x
CCc1ccc(N2CC(C(=O)NCC(C)(C)N3CCOCC3)CC2=O)cc1 (stereo unspecified)	-48.2%[inhibitor]	-6.9	-0.2	x	3.0%	-3.0%
CCCCN1C(=O)CCC(C(=O)O)C1c1ccc(OC)cc1 (stereo unspecified)	-7.6%[15.4 µM]	3.1	-0.3	1.3	-9.8%	0.9%
COc1cc(SC)ccc1C(=O)Nc1ccc(OCC(=O)N2CCOCC2)cc1	-8.1%[15.4 µM]	23.2	-1.1	-2.4	-13.0%	-1.3%
COC(=O)Cc1cc(=O)[nH]c(/N=C(\N)Nc2ccc(C)cc2C)n1	0.0%	3.9	-0.9	0.0	8.9%	0.1%
O=C(O)c1cccc(S(=O)(=O)Nc2ccccc2Oc2ccccc2)c1	-54.9%[inhibitor]	7.2	-0.5	x	x	1.7%
O=C(COC(=O)CCS(=O)(=O)c1ccccc1)NNC(=O)c1ccc([N+](=O)[O-])cc1	-44.3%[inhibitor]	14.1	-0.1	x	x	1.7%
CC#CCN1c2ccccc2[C@]23C[C@@H](C(=O)OC)N(C(=O)OCC)C2=NC(C(=O)OC)=C(C(=O)OC)[C@H]13	x	4.5	1.2	-3.3[11.7 µM]	5.5%	2.2%
O=C(Nc1ccccc1)c1ccc[nH]1	7.0%	13.0	-0.2	2.5	24.4%	0.7%
O=S(=O)(c1ccccc1)N1CCc2ccccc21	5.7%[15.4 µM]	6.7	0.6	x	6.7%	-26.2%
Cc1cccc(C(C)n2nnc3ccccc32)c1O (stereo unspecified)	x	-6.3	-0.2	x	-1.1%	-1.5%
Cc1cc(NC(=O)CC(C)C)c(=O)n(Cc2cccc(F)c2)c1	20.3%	x	x	6.0	-0.9%	-12.2%
CC(=O)CSc1nnc2cc(C)c3ccccc3n12	33.6%[15.4 µM]	-9.8	-0.5	0.0	x	x
CCNc1nc(NCC)nc(N/N=C/c2ccc([N+](=O)[O-])o2)n1	-17.4%	49.5	-0.5	1.8	-2.9%	0.5%
CCCCNC(=O)COC(=O)c1c2c(nc3ccccc13)/C(=C\c1cccs1)CC2	u	-5.9	1.1	x	-12.5%	x
Cc1ccc(CSc2nnc(-c3cccs3)n2C)cc1	-6.7%	30.3	0.4	4.4	1.8%	-4.4%
Cc1noc(C)c1COc1ccccc1C(=O)NNC(=O)c1ccc(F)cc1	u	4.4	-1.1	x	0.7%	1.2%
Cc1ccc(OCC(=O)Nc2cc(Cl)ccc2-n2cncn2)c(C)c1	-36.8%[inhibitor]	15.0	-0.9	x	x	-0.9%
COc1ccc(/C=C2/CCCC(CN(C)C)C2=O)cc1 (stereo unspecified)	3.5%	-14.1	0.3	x	7.2%	-1.1%
COc1ccc(S(=O)(=O)N(C)CC(=O)Nc2ccccc2C(F)(F)F)cc1	9.1%	29.9	0.1	4.8	-5.0%	-2.5%
COCc1c(C(=O)N2CCN(Cc3c(F)cccc3Cl)CC2)oc2ccccc12	-9.4%[15.4 µM]	-7.3	0.4	1.8	1.2%	x
CC(=O)Nc1cccc(NC(=O)C2CC(=O)N(C3CCCCC3)C2)c1 (stereo unspecified)	-29.3%	-2.8	0.2	x	2.9%	-1.2%
O=C(O)c1ccc(Cl)c(S(=O)(=O)Nc2cccc(C(=O)Nc3cccc(C(F)(F)F)c3)c2)c1	13.5%[15.4 µM]	4.9	2.4	-0.1	-7.9%	x
CCOc1ccc(N2CC(C(=O)Nc3cccc(C)c3C)CC2=O)cc1 (stereo unspecified)	1.1%	-4.5	-0.9	0.6	3.5%	-0.1%
COc1cccc(CN2C(=O)C3(SCC(=O)N3c3cc(C)cc(C)c3)c3ccccc32)c1 (stereo unspecified)	x	16.5	2.2	x	x	-2.1%
Clc1ccc(-c2nc3ccccc3[nH]2)cn1	-3.0%[15.4 µM]	1.3	0.6	6.8	0.8%	x
COc1cc(/C=C2/S/C(=N/S(=O)(=O)c3ccccc3)NC2=O)c([N+](=O)[O-])cc1OC	-29.7%	-7.7	1.2	u	-7.5%	0.0%
Cc1ccc(C(C)C)c(OCc2ccc(C(=O)N/N=C/c3ccc(O)cc3O)cc2)c1	-4.0%	-12.3	-0.1	6.8	2.7%	0.4%
Cc1ccc(NS(=O)(=O)c2ccc3c(c2)[C@H]2C=CC[C@H]2[C@@H](c2ccc(F)cc2)N3)cc1C	x	7.2	-0.8	x	x	-2.9%
O=C(NCC1(O)CCCCC1)C1CCC(=O)N(Cc2cccc(C(F)(F)F)c2)C1 (stereo unspecified)	-3.3%	3.2	-0.2	1.6	6.1%	-2.2%
O=c1cc(CN2CCN(c3ccccc3O)CC2)nc2sccn12	13.9%	-3.0	-0.5	-19.6	-21.4%	-7.3%
O=C(CN1CCN(c2ccccn2)CC1)Nc1ccc(Cl)c(C(F)(F)F)c1	-14.1%	5.5	-0.6	3.4	-5.7%	-5.1%
COc1ccccc1C1/C(=C(/O)c2ccc(C)cc2)C(=O)C(=O)N1CCN1CCOCC1 (stereo unspecified)	-26.4%	0.5	1.0	-0.3	-15.0%	-1.0%

An excerpt of these results, as a markdown table.
| compound | gsp agonist | TRPML1 blocker | TRPML1 agonist | Menin-MLL FL inh | gsp antag | ClpP mod |
| --- | --- | --- | --- | --- | --- | --- |
| Cc1noc(C)c1COc1ccccc1C(=O)NNC(=O)c1ccc(F)cc1 | u | 4.4 | -1.1 | x | 0.7% | 1.2% |
| Cc1ccc(OCC(=O)Nc2cc(Cl)ccc2-n2cncn2)c(C)c1 | -36.8%[inhibitor] | 15.0 | -0.9 | x | x | -0.9% |
